NPYLR7 agonist – activates Aedes aegypti NPYLR7 receptor. 270,000 tested, 0.15% active. AID 1259423. HEK293T NPYLR7/Galpha15, GCaMP6s calcium fluorescence. activation, % at 10 µM; in the data active = activation above about 40%;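 also: 0% = vehicle and 100% = reference agonist at the receptor; some compounds past the cut are filed as inactive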
NPYLR7 agonist max-min – also measured in NPYLR7 agonist; calls as there; activation, %; measured here: Max-Min RFU normalised activation; some inactives read as strong as hits;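 span of the calcium signal over five minutes; 0% = vehicle and 100% = native peptide agonist; compound fluorescence can raise it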
Numbers without * were called inactive. A portion of the library; count on the stated rates, not on these rows.

Compound,NPYLR7 agonist,NPYLR7 agonist max-min
Cc1ccc2c(c1)C1OCCC1C(c1ccco1)N2 (stereo unspecified),7.4,4.9
CCC(C)N(CC(=O)N1CCc2sccc2C1c1ccc(OC)cc1)C(=O)c1ccc(Br)cc1 (stereo unspecified),24.4,21.1
CCN1CCN(c2cc(C(C)(C)C)nc(SCc3ccc(C(=O)NC(C)c4ccccc4)cc3)n2)CC1 (stereo unspecified),9.9,10.3
S=c1[nH]nc(C2CC2)n1-c1ccccc1,3.3,2.4
O=C(CCC1CCN(C(=O)CN2CCC(c3ccccc3)CC2)CC1)NC1CC1,8.3,3.9
Cn1cc(NC(=O)N(CCCO)C2CCCc3ccccc32)cn1 (stereo unspecified),-3.5,141.1
COc1ccc(OCC(=O)NC2CCCCCCC2)cc1,-19.2,-17.7
CCc1ccc2oc(-c3ccc(C)c(NC(=O)c4ccccc4F)c3)nc2c1,3.4,11.2
CCOC(=O)C1=C(COc2cc(Cl)cc(Cl)c2)NC(=O)NC1,6.2,2.2
Cc1cc(NC(=O)Cc2c(Cl)cccc2Cl)n[nH]1,-3.8,-3.0
CCCn1c(=O)[nH]c(=O)c2cc(C(=O)C(C#N)C(=O)Nc3ccc(Cl)cc3Cl)cnc21 (stereo unspecified),0.1,5.8
CCc1nnc(CNC(=O)C2(COC)CCC2)s1,6.8,4.0
Cc1cccnc1CC(C)NC(=O)c1ccc(Cn2cnnn2)cc1 (stereo unspecified),0.5,-0.5
Cc1c(C)n(Cc2ccco2)c2ncnc(Nc3cccc(O)c3)c12,11.6,3.5
O=C(/C=C/c1cc2ccccc2o1)Nc1cccc(N2CCCC2=O)c1,2.0,0.9
Cc1ccc(Cl)cc1Nc1ncccc1C(=O)Nc1cccc(Oc2ccccc2)c1,-1.8,-4.5
COc1cccc(-c2ccc(C(=O)N3CCC(N4CCCC4=O)CC3)o2)c1,3.5,2.2
O=C(Cn1cnnn1)Nc1ccc(OCc2cccc(F)c2)c(F)c1,2.1,0.9
c1ccc(CNc2ncc(CN3CCCn4cncc4C3)cn2)cc1,1.7,3.3
COCCn1c(O)cc(=O)[nH]c1=S,-4.9,-3.9
O=C1CC(N2CCN(C(c3ccccc3)c3ccccc3)CC2)C(=O)N1c1ccc(F)cc1 (stereo unspecified),-3.2,-5.6
COCCN(CC(=O)Nc1nc(CC(=O)NCCCN2CCOCC2)cs1)C(=O)c1ccc(Cl)cc1,22.8,26.7
Cc1cc(Cl)cc2c3c([nH]c12)CCC(NC(=O)Cc1ccccc1F)C3 (stereo unspecified),24.5,14.3
CC(Nc1nccc(C(F)(F)F)n1)c1ccc(C#N)cc1 (stereo unspecified),7.3,2.4
O=C(NC1CCCC1)C1CCCN(S(=O)(=O)N2CCOCC2)C1 (stereo unspecified),5.9,1.7
CC(C)=CC1C(C(=O)NCc2ccc(N(C)C)nc2)C1(C)C (stereo unspecified),0.2,-1.2
O=C1/C(=C/c2ccc(Cl)cc2)C=C(c2ccccc2)N1c1ccc(O)cc1,-0.8,1.7
Cc1ccccc1C(=O)N1CCN(S(=O)(=O)c2sc(=O)[nH]c2C)CC1,4.4,1.6
CN(C)c1ccc(/C=N\NC(=O)c2cc(-c3ccccc3)nc3ccccc23)cc1,-9.4,-15.6
Cc1ccc(Cc2nc(N3CCN(C(=O)C4CC4)CC3)c3cnn(-c4ccccc4)c3n2)cc1,-6.7,0.6
CC(C)(C)CC(C)(C)Nc1c(-c2ccc3c(c2)OCO3)nc2ccccn12,5.9,9.4
Cc1nn(C)c(C)c1NC(=O)C(C)N1CCc2ccccc2C1 (stereo unspecified),10.5,3.4
CN(C)CC1(O)CCN(C(=O)c2cnc(-c3ccccn3)nc2)C1 (stereo unspecified),2.5,2.4
Cc1nn(-c2ccccc2)cc1CN1CCCC(OCc2ccccn2)C1 (stereo unspecified),2.1,-0.2
COc1ccc2c(c1OC)C(=O)N(c1ccc(I)cc1)C2=O,0.3,3.6
C[C@@H](C(=O)NCc1cccnc1Oc1ccc(F)cc1F)n1cnnn1,-3.2,-3.5
CC(=O)c1ccccc1NC(=O)COc1nc(C)no1,0.2,-12.7
Cc1noc(C)c1CN(C)Cc1cnc2c(-c3ccccc3)cnn2c1,13.2,9.2
CCCCCn1c(=O)c2c(nc3n(-c4ccccc4F)c(C)c(C)n23)n(C)c1=O,9.8,7.4
Cc1ccc(C)c(-n2cc(CNCC3CCCO3)c(-c3ccccc3)n2)c1 (stereo unspecified),-2.3,-7.0
CNc1ncnc2c1ncn2[C@H]1CN(Cc2ccccc2)C[C@@H](CO)O1,-0.5,-3.9
COc1cc(-c2nc3cc(C)ccn3c2NC(C)(C)CC(C)(C)C)ccc1OC(=O)C(c1ccccc1)c1ccccc1,-1.6,1.7
COc1ccc(CC(=O)N2CCOC(c3ccccc3)C2)cc1 (stereo unspecified),-1.6,-4.5
Cn1ncc(C#N)c1NC(=O)Cc1c(Cl)cccc1Cl,3.9,-1.2
O=C(NCC1(c2c(F)cccc2F)CCCC1)c1cscn1,0.8,0.3
Nc1nc(N)n(-c2ccccc2)n1,5.3,3.4
O=C(c1cc(F)cc(F)c1)N1CCN(c2nccc(-c3ccco3)n2)CC1,-6.4,-8.9
CCc1nc(C)c(C(=O)N2CCCC3(C=Cc4ccccc4O3)CC2)o1 (stereo unspecified),11.8,4.2
CCCNC(=O)c1cccc(C(=O)NC(C#N)c2ccccc2C)c1 (stereo unspecified),0.4,-2.7
O=C(CSc1nnnn1C1CC1)c1ccc(CC(=O)N2CCOCC2)s1,8.4,13.3

(cont.)
Compound,NPYLR7 agonist,NPYLR7 agonist max-min
CC(C)c1ccc(Nc2ncc3c(n2)CCN(C(=O)NC2CCCCC2)C3)cc1,-6.6,-10.8
Cc1cc(C)n(CC(C)NCc2c(C)noc2C)n1 (stereo unspecified),9.5,9.3
O=C(c1ccc2c(c1)OCO2)N1CCC(c2nc3ccccc3[nH]2)CC1,-0.2,-2.7
CCOC(=O)C1(Cc2cccc(OC)c2)CCN(Cc2ccc(C)o2)CC1,-6.7,-7.8
CC1(C)O[C@@H]2C[C@@](OCc3cccc(F)c3)(C(=O)NCC3CCCO3)CC(OCc3cccc(OC(F)(F)F)c3)[C@@H]2O1 (stereo partly specified),4.3,11.2
COc1ncccc1C(=O)N1CCCN(CC(=O)N(C)C)CC1,0.9,0.1
c1cc(-c2ccc(-c3nccn3-c3ccc4c(c3)OCO4)o2)[nH]n1,-3.6,5.9
c1cc(-c2ccc3ncc(-c4ccoc4)n3n2)ccn1,-5.0,-8.1
COC(=O)C(c1ccc(F)cc1Cl)C1C=CC(NC(=O)c2cc(C)oc2C)C1 (stereo unspecified),22.9,20.3
N#Cc1c(SCc2ccccc2C(F)(F)F)sc2c(=O)[nH]c(=O)[nH]c12,-2.7,-7.6
COc1ccc(CCN2CC(C(=O)N3CCC(c4ccncc4)CC3)CCC2=O)cc1 (stereo unspecified),20.2,10.8
FC(F)(F)Oc1ccccc1C1CC1c1nc(C2CC2)no1 (stereo unspecified),-2.0,-2.6
Cc1nnc(CN2CCCCC2c2nc3ccc(F)cc3[nH]2)s1 (stereo unspecified),-0.5,-1.7
COc1ccc(OC)c(-c2nc3c(OCc4ccccc4)cccn3c2Nc2c(C)cccc2C)c1,-0.6,-9.7
c1cnn(CCC2CCN(Cc3ccsc3)CC2)c1,-0.3,-0.6
CCc1nc2ccc(C(=O)NCCN3CCNC3=O)cn2c1N(C)Cc1ccc(N(C)C)cc1,9.4,-1.5
Cc1nc(C(C)NC(=O)Nc2ccc(C(=O)N(C)C)c(C)c2)cs1 (stereo unspecified),1.5,0.4
CCn1c(CCc2nc3ccccc3[nH]2)n[nH]c1=O,6.5,5.6
NS(=O)(=O)c1ccc(OCCN(CC2CCOC2)C2CC2)cc1 (stereo unspecified),-1.4,-17.3
COC(=O)C(C)OC(=O)C1CC(=O)N(c2ccc3c(c2)Cc2ccccc2-3)C1 (stereo unspecified),3.9,0.8
COc1cccc(OC2CN(C(C)C(=O)Nc3nccs3)C2)c1 (stereo unspecified),6.7,8.9
O=C1CN(S(=O)(=O)c2cccc(NS(=O)(=O)c3ccccc3)c2)CCN1,-2.0,-2.2
O=C(Nc1ccc(S(=O)(=O)NC2CC2)cc1)c1ccc(Cl)c(S(=O)(=O)N2CCOCC2)c1,-9.6,-10.0
O=C(C1CCCC1)N(CCN1CCOCC1)Cc1nccn1Cc1ccccc1C(F)(F)F,3.9,12.6
Cc1cc(=O)[nH]c(-n2nc(C3CC3)cc2NC(=O)COc2ccc(F)cc2)n1,4.9,5.7
O=C(c1cc(F)ccc1F)N1CCCC1c1ccc(O)cc1 (stereo unspecified),-4.9,-6.7
C=CCN1CCN(c2cccc3ccccc23)C(=O)C1C (stereo unspecified),-1.8,6.9
Cc1ccc(C(=O)N(Cc2ccccc2)C2C=CS(=O)(=O)C2)s1 (stereo unspecified),5.1,3.9
COc1ccc(CCN(C)c2cc(Oc3ccc(F)cc3Cl)ncn2)cc1OC,2.5,3.0
NC(=O)c1cc2cc(Cl)ccc2oc1=NCc1ccccc1,-3.8,-7.7
Cc1cccc(CN(CCc2c[nH]c3ccccc23)Cc2nc(C(=O)Nc3ccc(F)cc3)co2)c1,0.1,3.1
C=CCn1c(SCC(=O)NC2CCCC2)nc2sc3c(c2c1=O)CCCC3,-7.4,-8.3
CSC1=NCCN1CCOc1ccccc1,5.3,3.2
Nc1c(C=C2C=CC(=O)C=C2)c(=O)nc2sc(-c3ccccc3)nn12,0.3,-2.1
C=CCNCC(=O)N(Cc1ccco1)CC1CCCO1 (stereo unspecified),-4.2,0.1
O=C(CCOc1ccccc1)NC1CCCN(c2nc3ccccc3s2)C1 (stereo unspecified),16.4,4.8
Cc1ccc(NC(=O)/C(=C/C=C/c2ccccc2)NC(=O)c2ccccc2)cc1,-0.2,-1.1
CCCn1c(=O)c2c(nc3n(Cc4ccco4)c(C)cn23)n(C)c1=O,-1.7,24.0
CC1CC(C)(C)CCC1NC(=O)NCC(C)(O)c1cnn(C)c1 (stereo unspecified),6.3,6.0
CCOC(=O)c1[nH]c(C)c(C(=O)C(C)N(CCOC)C(=O)c2ccc([N+](=O)[O-])cc2)c1C (stereo unspecified),-0.3,15.8

Entries of single compounds as entered above.
`Cc1ccc(C)c(-n2cc(CNCC3CCCO3)c(-c3ccccc3)n2)c1` (stereo unspecified) is listed with NPYLR7 agonist: -2.3; NPYLR7 agonist max-min: -7.0
`CCc1nc2ccc(C(=O)NCCN3CCNC3=O)cn2c1N(C)Cc1ccc(N(C)C)cc1` is listed with NPYLR7 agonist: 9.4; NPYLR7 agonist max-min: -1.5
`c1ccc(CNc2ncc(CN3CCCn4cncc4C3)cn2)cc1` is listed with NPYLR7 agonist: 1.7; NPYLR7 agonist max-min: 3.3

(list continues)
Compound,NPYLR7 agonist,NPYLR7 agonist max-min
O=C1CCCN1CCC(=O)N1CCOC(CCc2ccccc2)C1 (stereo unspecified),2.7,-2.1
Cc1cccc(C(=O)N(Cc2cc(NC(=O)C3CC3)ccc2N(C)C)C(C)C)c1,-9.6,-6.0
Cc1ccn2c(=O)nc(SCC(=O)Nc3ccccc3C)nc2c1,0.8,-0.7
O=C(CN(c1cccc([N+](=O)[O-])c1)S(=O)(=O)c1ccccc1)N1CCc2ccccc2C1,-14.0,-4.4
Cc1ccc(F)c(NC(=O)CCC(=O)NCCN2CCOCC2)c1,0.5,-0.4
CC1SC(c2ccc(C(F)(F)F)cc2)N(CCC(=O)NCc2ccc(F)cc2)C1=O (stereo unspecified),2.3,14.3
COc1ccc(NC(=O)CSc2nnc(NC(=O)c3ccco3)s2)cc1,-13.2,-21.0
COc1ccc(C)cc1NC(=O)Cn1cnc2cc(Cl)ccc2c1=O,-4.4,-6.1
CC1CCCC(C)N1S(=O)(=O)c1ccsc1C(=O)O (stereo unspecified),-24.2,-25.9
O=C(N1CCOCC1)N1C[C@H](O)[C@H]2C[C@@H]1Cc1c2[nH]c2ccccc12,29.6,38.5
CC1(C)Cc2cccc(OCC(=O)N3CCN(c4ncnc5c4nnn5Cc4ccccc4)CC3)c2O1,-5.2,-6.6
Cc1cc(C)n(CCN(C(=O)c2ccno2)c2nc3c(C)c(Cl)ccc3s2)n1,-16.5,-22.7
CCOc1ccc(NC(=O)Cn2nc(-c3ccccc3)c3sc(N4CCOCC4)nc3c2=O)cc1,-2.3,-7.8
CCC(C(=O)NCCOc1ccc2nnc(-c3ccccc3)n2n1)c1ccccc1 (stereo unspecified),-11.3,-15.3
CC1CCCN(C(c2ccc(F)cc2)C2Sc3ncnn3C2=O)C1 (stereo unspecified),5.6,3.3
COc1cc(C2CC(c3ccc(C)cc3)=Nc3ncnn32)cc(OC)c1OC (stereo unspecified),2.9,9.5
O=C(Nc1ccc(F)cc1F)C(C1CCCC1)N1CCN(C(=O)c2ccc(C(F)(F)F)cc2)CC1 (stereo unspecified),4.1,2.8
CSc1ncc(Cl)c(C(=O)Nc2sc3c(c2C(=O)NCc2ccco2)CCC3)n1,6.7,2.1
